Source: PubChem (several laboratories)
YopH PTP inh: blocks Yersinia enterocolitica YopH tyrosine phosphatase | fluorescence Ex485/Em525 | AID 898 | inhibition, %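 (about 10 µM by stock and volumes)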 | 140,000 compounds, 0.16% hits;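 active = inhibition of 50% or more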;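 note: controls were vehicle for no effect and minimum signal wells for full effect; inactives centre near -20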
RecA splice inh: inhibitors of M. tuberculosis RecA intein splicing. inhibition, %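 (about 9 µM by stock and volumes)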. 290,000 compounds, 0.75% hits. cell-free RecA intein splicing, fluorescence. AID 2221; in the data active = inhibition above about 30%; inconclusive = no clear call, values can overlap the other calls;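 note: 0% = vehicle wells and 100% = reference inhibitor control wells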
Target sequence (P9WHJ3 whole entry, looked up, canonical isoform): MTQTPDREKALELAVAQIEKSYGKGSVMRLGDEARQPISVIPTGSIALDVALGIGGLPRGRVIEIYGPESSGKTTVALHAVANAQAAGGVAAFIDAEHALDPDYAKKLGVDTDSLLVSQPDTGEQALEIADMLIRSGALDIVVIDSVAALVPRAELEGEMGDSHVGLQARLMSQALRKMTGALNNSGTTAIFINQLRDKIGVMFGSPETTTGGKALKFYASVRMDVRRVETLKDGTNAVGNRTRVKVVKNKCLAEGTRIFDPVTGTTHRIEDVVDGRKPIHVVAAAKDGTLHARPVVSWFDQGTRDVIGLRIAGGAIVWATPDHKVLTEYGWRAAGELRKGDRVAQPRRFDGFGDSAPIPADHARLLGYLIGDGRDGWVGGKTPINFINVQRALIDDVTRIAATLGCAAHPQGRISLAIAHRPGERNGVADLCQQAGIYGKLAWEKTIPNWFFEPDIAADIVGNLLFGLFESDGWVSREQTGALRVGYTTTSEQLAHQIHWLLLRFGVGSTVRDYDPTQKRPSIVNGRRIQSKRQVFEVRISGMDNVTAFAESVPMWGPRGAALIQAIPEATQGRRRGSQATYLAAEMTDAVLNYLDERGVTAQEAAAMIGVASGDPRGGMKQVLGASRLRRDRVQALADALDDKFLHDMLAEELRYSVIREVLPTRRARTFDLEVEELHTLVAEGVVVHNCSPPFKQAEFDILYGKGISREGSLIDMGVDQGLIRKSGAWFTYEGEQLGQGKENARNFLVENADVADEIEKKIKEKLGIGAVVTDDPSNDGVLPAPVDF
Mtb growth: M. tuberculosis H37Rv growth inhibitors, H37Rv strain (AID 1626) | M. tuberculosis H37Rv growth inhibition; higher % means a stronger effect | inhibition, % at 10 µM, or IC50 in µM where a hit was titrated | 220,000 compounds, 0.95% hits;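 active = confirmed in a dose series; inconclusive = inhibition above 80% but not taken into the dose series; inactive = below 80% or under 30% at every dose of the series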;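 note: bacteria incubated seven days before Alamar blue readout; 0% = bacteria only wells and 100% = bacteria with antibiotic wells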
Arbovirus anti: blocks arbovirus infection | arbovirus infection cell-based antiviral screen | inhibition, % at 10 µM | 200,000 compounds, 0.37% hits;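 active = inhibition from about 30%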;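 note: bluetongue infection of BSR cells; cell survival read as ATP light after 72 h; 0% = infected wells without compound and 100% = uninfected wells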
Mtb betalactam: beta-lactam sensitization of Mtb H37Rv; inhibition, % at 25 µM; M. tuberculosis H37Rv growth with meropenem, percent inhibition; hits of this screen are not shown here; 330,000 compounds, 0.27% hits;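 active = about 74% or more and at least 40 points above the plate without the antibiotic, then above 30% in a dose series; inconclusive = first-round hits that could not be retested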;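 note: growth measured after seven days incubation then overnight dye step; 0% = bacteria only wells and 100% = bacteria with antibiotic; twin plates without the antibiotic show which effects depend on it; some results filed as inactive read as strong as hits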
Arbovirus anti repeat: further read-out of Arbovirus anti, marked with its call; inhibition, %; measured here: 10K subset replicate screen; many hits read low in the repeat;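 first of two repeat runs on a subset; 0% = infected and 100% = uninfected wells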
Numbers without * were called inactive; ? = inconclusive; / = not tested or not shown. An excerpt; the hit share may differ from the screen's.

SMILES	YopH PTP inh	RecA splice inh	Mtb growth	Arbovirus anti	Mtb betalactam	others
COc1ccc(OC)c(NC(=O)C2CCN(S(=O)(=O)c3ccc4c(c3)CC(C)N4C(C)=O)CC2)c1 (centres undefined)	/	-0.1	/	/	6
COc1ccc(CCNC(=O)c2csc3c2CCCC3)cc1	/	2.5	7%	-2	3
CCC(C(=O)NC1CCCC1)N(C(=O)c1snc(C(N)=O)c1N)c1ccc2c(c1)OCCO2 (centres undefined)	-48	-2.9	-4%	1	1
Cc1ccccc1NC(=O)CN1C(=O)NC(C)(c2ccc3c(c2)OCO3)C1=O (centres undefined)	-4	0.2	-2%	1	-3
COc1ccc(-n2ccnc2SCC(=O)NCc2ccc(F)cc2)c(OC)c1	/	1.9	-7%	-3	-3
O=C(N/C(=C\c1ccc(Br)cc1)C(=O)N1CCOCC1)c1ccc(Br)o1	/	-0.3	/	/	-7
COc1ccc2cc(Br)ccc2c1CC(=O)NCCCN1CCOCC1	/	-0.6	/	/	-3
COc1cc2c(=O)nc3n(c2cc1OC)C(c1ccccc1)N=C(N)N3 (centres undefined)	-23	-0.4	-5%	6	/
CCCCn1c(=O)c(CCC(=O)OCC(=O)NC(=O)NCCOC)nc2ccccc21	/	/	4%	3	-1
Cc1cc(C(=O)NCCc2ccccc2)ccc1[N+](=O)[O-]	-29	2.6	7%	-5	3
Cc1ccc(C)c(NS(=O)(=O)c2cc(C(=O)NCc3ccccn3)ccc2Cl)c1	-2	4.5	-3%	2	1
O=C(NNC(=S)NC(=O)c1ccc(Br)cc1)c1ccc([N+](=O)[O-])cc1	/	0.2	/	/	96
COP(=O)(OC)c1nc(-c2cccc3ccccc23)oc1N1CCOCC1	-11	-18	1%	-8	7
C=CCNC(=O)c1c(N)n(-c2ccc3c(c2)OCO3)c2nc3ccccc3nc12	-4	2.2	1%	-25	-1
O=C(Nc1ccnn1C1CCN(C/C=C/c2ccccc2)CC1)C1CCCC1	/	-1.0	/	/	-14
CC(NC(=O)CC1CCCCC1)c1ccccc1 (centres undefined)	/	-4.0	/	/	8
O=c1c2[nH]c3ccccc3c2ncn1Cc1ccccn1	-27	-0.5	/	-5	5
COC(=O)c1cn(-c2ccc(F)cc2)c(=O)c2ccccc12	/	2.3	6%	4	-1
CCOc1cc(S(=O)(=O)n2cnc(C)c2)ccc1Cl	/	0.4	7%	21	-4
COCCN(C(=O)COC(=O)COc1ccc(Cl)c(C)c1)c1c(N)n(Cc2ccccc2)c(=O)[nH]c1=O	/	-0.4	/	/	-14
COc1ccc(CCNC(=O)c2ccc(N3CCCC3=O)cc2)cc1OC	-13	-2.1	-10%	6	?
COc1ccc(-c2cc(Nc3ccccc3NC(=O)C(F)(F)F)n(CCC#N)n2)cc1	-18	0.1	-11%	-4	-6
Cc1cc(C)nc(N2CCC(C(=O)NNC(=O)Cc3ccccc3)CC2)n1	/	-1.6	/	/	-9
Cc1c(OC(C)C(=O)N2C[C@H]3C[C@@H](C2)c2cccc(=O)n2C3)ccc2c3c(c(=O)oc12)CCCC3 (some centres undefined)	/	2.0	/	/	-6

Ordered by number of heavy atoms (rising): 7 of the compounds above
SMILES	YopH PTP inh	RecA splice inh	Mtb growth	Arbovirus anti	Mtb betalactam	others
CC(NC(=O)CC1CCCCC1)c1ccccc1 (centres undefined)	/	-4.0	/	/	8
O=c1c2[nH]c3ccccc3c2ncn1Cc1ccccn1	-27	-0.5	/	-5	5
COc1ccc(CCNC(=O)c2csc3c2CCCC3)cc1	/	2.5	7%	-2	3
COc1ccc(CCNC(=O)c2ccc(N3CCCC3=O)cc2)cc1OC	-13	-2.1	-10%	6	?
COc1ccc(-n2ccnc2SCC(=O)NCc2ccc(F)cc2)c(OC)c1	/	1.9	-7%	-3	-3
CCC(C(=O)NC1CCCC1)N(C(=O)c1snc(C(N)=O)c1N)c1ccc2c(c1)OCCO2 (centres undefined)	-48	-2.9	-4%	1	1
Cc1c(OC(C)C(=O)N2C[C@H]3C[C@@H](C2)c2cccc(=O)n2C3)ccc2c3c(c(=O)oc12)CCCC3 (some centres undefined)	/	2.0	/	/	-6

Remaining list, next part.
SMILES	YopH PTP inh	RecA splice inh	Mtb growth	Arbovirus anti	Mtb betalactam	others
CCN1CCC2(CCN(C(=O)c3cc(COc4cc(C)ccc4C)on3)C2)C1 (centres undefined)	/	2.2	/	/	88
CCOC(=O)c1ccccc1NC(=O)c1c(O)c2ccccc2n(CC)c1=O	-105	1.1	10%	-20	6
CCOc1ccccc1N1CCN(C(=O)c2ccc(-c3ccc(OC(C)=O)cc3)cc2)CC1	/	31*	/	/	76
O=C(CSc1nnc2c(n1)[nH]c1ccccc12)Nc1cccc(S(=O)(=O)N2CCOCC2)c1	/	-2.6	-4%	/	-2
COC(=O)c1c(C)[nH]c(C(=O)OCC(=O)NCC(C)C)c1C	-16	-4.0	-12%	5	-4
CN(C)c1nc(-c2ccccc2)nc(-c2ccc(Cl)cc2)c1C#N	8	/	-5%	-19	5
Cn1cnc([N+](=O)[O-])c1Nc1ccccc1O	-16	-5.7	-7%	3	21
Cc1c(Br)c(C(N)=O)nn1C	-4	-0.7	0%	-1	-4
COc1ccc(Br)cc1/C=C\C(=O)NCc1cccnc1	/	3.5	-1%	-8	-1
O=C(NCCN1CCCCCC1)C1CCN(S(=O)(=O)N2CCOCC2)CC1	-52	-2.8	-2%	6	-14
O=C(OCc1ccccc1Cl)c1ccc(-n2cnnc2)cc1	-18	-4.0	4%	-5	-7
O=C(CN1CCN(Cc2ccc3c(c2)OCO3)CC1)Nc1ccc2c(c1)OCO2	-6	1.4	-9%	-16	-3
CC(C)C(=O)NN1c2ccccc2CCc2ccccc21	/	-0.7	4%	/	1
Fc1ccc(CNC(=S)NCc2ccccc2)cc1	/	12	/	/	-4
CC1(C)NC(=O)N(CNc2cc(Cl)ccc2Cl)C1=O	-19	2.7	-2%	3	-6
Cc1ccc(-c2csc(NC(=O)c3ccco3)n2)cc1C	/	8.1	/	/	49
Fc1ccc(N2CCN(Cc3nnc(-c4ccccc4)o3)CC2)cc1	-9	2.7	-2%	4	3
Nc1ncnc(Nc2cccc(Cl)c2Cl)n1	/	9.2	-1%	20	-3
C/C(=N\NC(=O)C1CC1)c1cccc(NC(=O)c2cccc(Cl)c2)c1	/	2.1	1%	-3	-7
Cc1cc(OCCn2cc(/C(N)=N/O)c3ccccc32)ccc1Cl	-16	5.8	2%	-17	0
Cc1c(OC(=O)c2ccc([N+](=O)[O-])cc2)c2c(c[n+]1C)COC(C)(C)OC2	-10	2.7	-9%	-3	65
NC(=O)C1CCN(C(=O)CCc2nc3sc4c(c3c(=O)[nH]2)CCCC4)CC1	/	-4.6	/	/	-4
C#CCOCCOCCOCCNc1nc(N2CCN(C(=O)[C@H](CCCCN)n3cc([C@@H](N)C(C)CC)nn3)CC2)nc(N2CCN(C(=O)[C@H](Cc3cc4ccccc4[nH]3)n3cc([C@@H](N)CC(C)C)nn3)CC2)n1 (some centres undefined)	/	-3.4	/	-7	91
O=c1[nH]c(C2CCN(S(=O)(=O)c3ccc(C(F)(F)F)cc3)CC2)nc2c1nnn2Cc1ccc(F)cc1	/	4.5	/	/	4
COc1ccc(CCNS(=O)(=O)c2cccc3nsnc23)cc1OC	-10	-2.1	-8%	4	-1
Cc1c(C)c2ccc(OCC(=O)Nc3ccc(S(N)(=O)=O)cc3)c(C)c2oc1=O	/	2.4	/	/	1
Cc1cc(Cl)c(S(=O)(=O)NC(C(=O)O)C(C)C)cc1OCC(=O)NC1CCCCC1 (centres undefined)	-32	-1.5	-12%	6	-1
CCc1ccc(NC(=O)CSc2nnc(-c3ccco3)o2)cc1	/	-0.4	/	/	10
O=C(Nc1nnc(-c2cccs2)o1)c1cccc(C(F)(F)F)c1	/	3.3	<0.39µM*	-24	96	Arbovirus anti repeat=-4
COc1ccccc1NC(=O)CC1SC(=N)N(c2ccccc2)C1=O (centres undefined)	/	0.1	8%	-1	-4
COc1ccc(OC)c(NC(=O)CCc2c[nH]c3ccccc23)c1	/	/	12%	-19	-7
O=C(Nc1ccccc1)c1cc(-c2ccccc2Cl)no1	-5	1.9	9%	6	22
CC(=O)Nc1cccn(Cc2c(Cl)cccc2Cl)c1=O	/	7.4	7%	-2	-2
Cc1ccc2nc3sc(C(=O)Nc4c(C)[nH]c(=O)[nH]c4=O)c(N)c3cc2c1	1	-4.3	-4%	-5	4
Cc1cc([N+](=O)[O-])nn1CC(=O)NNC(=S)Nc1ccc(Cl)cc1	-3	0.7	-8%	-7	-7
O=C(O)/C=C/c1cn(-c2ccccc2)nc1-c1cc2ccccc2oc1=O	/	-1.5	-7%	/	-5
O=C(NC1CC1)C1=C[C@@H](C2CCCCC2)C[C@@H](OCc2ccc(CO)cc2)O1	/	3.1	-2%	1	0
O=C(NC1CCCC1)C1(c2ccccc2)CCN(S(=O)(=O)c2ccccc2)CC1	13	-0.4	-1%	-1	-12
Clc1ccc(CNCc2cccs2)cc1Cl	-14	3.7	-1%	0	-14
O=C(NCC1CCCO1)c1ccc(NC(=O)c2cccc(Cl)c2)cc1 (centres undefined)	/	2.1	/	/	-1
O=C(NCCc1ccccc1)C(=O)NCC(c1ccco1)N1CCOCC1 (centres undefined)	/	1.3	3%	0	-6
CC1Sc2ccc(S(=O)(=O)N3CCC(C(=O)Nc4cccc(Cl)c4)CC3)cc2NC1=O (centres undefined)	/	6.9	/	/	64
Cc1cccn2cc(CNS(=O)(=O)c3ccc4ccccc4c3)nc12	/	0.7	/	/	-14
CC(C(=O)NCCN1C(=O)S/C(=C\c2cccs2)C1=O)N1C(=O)c2ccccc2C1=O (centres undefined)	-34	1.0	0%	3	-2
Cc1ccc(NC(=O)CN2CCC(C(=O)c3ccc(F)cc3)CC2)cc1	-22	-1.7	1%	-14	3
COc1ccc(-c2csc(/C(C#N)=C\c3cccc([N+](=O)[O-])c3)n2)cc1	-22	-0.4	-2%	-4	4
COC(=O)c1[nH]c2ccc(Br)cc2c1NC(=O)CN1CCCCC1CCO (centres undefined)	-22	-0.9	3%	-1	-13
CCNS(=O)(=O)c1ccc(NS(C)(=O)=O)cc1	-50	-0.1	-1%	4	-5
Cc1ccc(Nc2nc3ccccc3n3cnnc23)cc1Cl	/	-0.5	/	/	15
COC(=O)CCC(=O)OC1(C)C(=O)C2=CN(CC3CC3)C(c3ccc(OC)cc3)=CC2=C(Br)C1=O (centres undefined)	/	-1.7	-7%	/	35
COc1cccc(/C=N/n2c(CO)nc3ccccc32)c1OC	-46	0.9	-6%	0	-16
CCC(O)c1c(-c2ccccc2)nn(C)c1Cl (centres undefined)	/	-0.9	-6%	-4	-3
O=c1[nH]c(-c2ccc3c(c2)OCO3)nc2c1sc(=S)n2-c1ccccc1	/	-3.9	1%	17	-5
CC(=O)N1CCCc2cc(S(=O)(=O)N(C)Cc3ccccc3)ccc21	-1	-1.9	6%	-6	0
Oc1cccc2ccc(/C=C/c3ccccc3Br)nc12	/	0.5	/	/	97
N#Cc1cnn(-c2ccccc2)c1NC(=O)CN1CCN(c2ccccc2)CC1	/	-0.8	-1%	/	-2
Cc1cccc(COc2ccccc2/C=N/Nc2ccc([N+](=O)[O-])cc2)c1	-27	-1.9	?	-10	97
CCc1c(C(=O)Nc2ccc(OC)cc2)[nH]c(C)c1C(C)=O	-42	1.7	-16%	-25	10
O=C(Nc1ccc2c(c1)OCCO2)c1cccc(Cl)c1	/	12	/	/	0
CCNC(=O)COc1ccc(S(=O)(=O)Nc2ccccc2)cc1	8	-6.2	-5%	-2	-12

The list goes on:
SMILES	YopH PTP inh	RecA splice inh	Mtb growth	Arbovirus anti	Mtb betalactam	others
NC(=S)Nc1cccc2cc3ccccc3cc12	-15	-37	3%	0	40
OC(COCc1ccccc1)Cn1cnc2ccccc21 (centres undefined)	-43	-3.5	-6%	2	-3
Cc1ccc(OCCCCNC2CCCCC2)c(C)c1	/	-0.4	5%	-16	-5
Cc1ccc(S(=O)(=O)NNC(=O)Nc2ccccc2F)c(C)c1	/	-0.4	/	/	1
O=C(NCc1ccc(F)cc1)C1CCCN1S(=O)(=O)c1cccc2nsnc12 (centres undefined)	/	4.4	/	/	-1
O=C(NCCN1CCOCC1)c1cc(=O)[nH]c2ccc(Br)cc12	-28	3.5	/	11	-11
CCOC(=O)C1=C(C)NC(SC)=C(C#N)C1CC(C)C (centres undefined)	/	-1.8	8%	/	-1
CCOC(=O)C1CCN(c2cc3c(cc2NC(=O)c2ccc(F)cc2)n(C)c(=O)n3C)CC1	/	-0.6	/	/	6
COc1ccc(/C=C/C(=O)NC(C)(C)C)cc1S(=O)(=O)N1CCOCC1	-12	-6.0	4%	-1	8
c1ccc(-c2nnc(-c3ccccn3)nn2)nc1	/	0.9	/	-11	100	Arbovirus anti repeat=-6
